MenB inh: inhibitors of Mycobacterium tuberculosis MenB enzyme | MenB enzyme assay, absorbance read-out; some hits fall short of the stated cut | inhibition, %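 (about 12 µg/mL by stock and volumes)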 | 100,000 compounds, 0.43% hits | AID 540299 | P9WNP5;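 active means mean of two replicates above 30%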;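 further: 0% = no compound and 100% = wells with inactive enzyme; the first replicate is given; strong numbers were not always called active; inactives centre near -10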
Target sequence (P9WNP5 whole entry, looked up): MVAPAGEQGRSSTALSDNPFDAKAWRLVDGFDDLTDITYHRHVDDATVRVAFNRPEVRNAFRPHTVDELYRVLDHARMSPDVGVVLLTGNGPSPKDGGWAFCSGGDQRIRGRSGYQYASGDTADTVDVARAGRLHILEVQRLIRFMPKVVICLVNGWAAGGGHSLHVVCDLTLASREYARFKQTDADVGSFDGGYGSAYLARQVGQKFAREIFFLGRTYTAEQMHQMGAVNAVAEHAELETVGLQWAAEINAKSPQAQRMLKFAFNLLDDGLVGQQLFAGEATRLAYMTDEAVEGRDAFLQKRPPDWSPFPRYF
MbtI inh: inhibitors of Mycobacterium tuberculosis siderophore enzyme MbtI. 100,000 compounds, 0.89% hits. P9WFX0. purified MbtI enzyme, fluorescence intensity read-out. inhibition, %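 (about 17 µg/mL by stock and volumes)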;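 active means above 50% in both replicates, above 80% if mildly self-fluorescent; inactive means the rest, strongly fluorescent compounds included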;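 further: 0% = mean of negative and 100% = mean of positive controls; one replicate is shown; some compounds called inactive have numbers as strong as hits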
Target sequence (P9WFX0 whole entry, looked up): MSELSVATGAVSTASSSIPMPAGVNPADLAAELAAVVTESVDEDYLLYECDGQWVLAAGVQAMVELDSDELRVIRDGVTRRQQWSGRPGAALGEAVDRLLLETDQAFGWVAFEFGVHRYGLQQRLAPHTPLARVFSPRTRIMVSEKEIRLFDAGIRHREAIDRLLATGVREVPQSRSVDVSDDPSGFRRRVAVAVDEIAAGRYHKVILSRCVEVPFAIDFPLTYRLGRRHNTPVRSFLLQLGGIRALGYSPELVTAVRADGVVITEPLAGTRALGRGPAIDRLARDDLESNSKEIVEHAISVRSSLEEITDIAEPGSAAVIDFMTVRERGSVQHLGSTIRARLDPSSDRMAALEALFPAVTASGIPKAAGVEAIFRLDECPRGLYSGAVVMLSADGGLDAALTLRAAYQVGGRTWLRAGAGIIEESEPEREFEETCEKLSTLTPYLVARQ
Polio RdRp inh: poliovirus RNA polymerase inhibition; P03300; poliovirus polymerase elongation, fluorescence polarization; hits give low values; % elongation, % (compound at 16.7 µg/mL); 150,000 compounds, 0.66% hits; in the data active means % elongation below about 90%; further: some results filed as inactive read as strong as hits
Polio RdRp inh intensity: recorded beside Polio RdRp inh, whose call it bears; % elongation; measured here: total intensity read-out; formula for this scale not given here;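 total fluorescence in place of polarization; lower means less elongation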
Numbers without * were called inactive; i = inactive; / = no result given; & = joins results of further samples.

SMILES	MenB inh	MbtI inh	Polio RdRp inh	Polio RdRp inh intensity
COc1ccc2[nH]c(C(=O)O)cc2c1	-5	115	102	102
CCn1cc(SCC(=O)N2N=C(c3cccs3)CC2c2ccc(F)cc2)c2ccccc21 (configuration not stated)	-32	-11	104	102
CC1=NN(C(=S)c2ccccc2)C(C)(O)C1 (configuration not stated)	-11	-24	103	107
Cc1cc(C)cc(Oc2coc3cc(OCC(=O)NCc4ccccc4)ccc3c2=O)c1	7	4	105	100
Cc1ccc(S(=O)(=O)N(CCC#N)Cc2ccccc2)cc1	-24	-10	105	102
CCOc1ccc(CCNC(=O)COc2cccc(-n3cnnn3)c2)cc1OCC	11	-3	96	104
NC(=S)CCN1C(=O)c2ccccc2C1=O	-2	9	101	102
CCCCN1Cc2c(n(CC(=O)c3ccccc3)c3cc(-c4ccccc4)nn3c2=O)C1=O	-20	-8	104	98
CS(=O)(=O)Nc1ccc2c3c(cccc13)CC2	-10	/	111	155
CCC(=O)Nc1ccc(C(=O)CSc2nnc(-c3ccc(O)cc3)n2CC2CCCO2)cc1 (configuration not stated)	19	9	101	103
O=C(O/N=C1\Cc2ccccc2C1=O)c1cccs1	-11	5	103	106
CCC(=O)Nc1ccc(C(=O)N2CCCCC2C)cc1 (configuration not stated)	-17	5	100	104
Cc1ccc(S(=O)(=O)NC(=O)N2c3ccccc3CCc3ccccc32)cc1	-14	18	104	110
FC(F)(F)c1cccc(-n2cncn2)n1	9	5	101	103
c1ccc(CSc2nnc(CCCCc3nnc(SCc4ccccc4)o3)o2)cc1	-4	-9	97	101
CC(Oc1ccc(F)cc1)c1nnc(SCC(N)=O)n1C (configuration not stated)	2	-4	104	100
CC(C)Cn1c(SCC(=O)N2CCc3ccccc32)nc2ccccc2c1=O	-18	0	100	104
CC/C(C)=N/NC(=O)c1cccc(S(=O)(=O)N(CC)CC)c1	-40	-4	108	107
NCCSCc1ccccc1	-12	1	100	101
C=C1N(c2nc(C)cc(C)n2)C(=O)OC1(C)C	5	/	101	100
c1ccc2c(CSc3nc4ccccc4o3)cccc2c1	-13	/	102	88
O=P(c1ccccc1)(c1ccccc1)C1CCCO1 (configuration not stated)	-71	-8	101	103
CN[C@@H]1CC2OC(C)([C@@H]1OC)n1c3ccccc3c3c4c(c5c6ccccc6n2c5c31)C(=O)NC4 (some centres not stated)	/	i	100	105
Cc1cc(C)c(OC(=O)/C=C/c2cccs2)c(C)c1	-16	-6	109	112
Cc1nn(-c2ccccc2)c2sc(C(=O)Nc3cccnc3)cc12	-1	i	97	103
O=C(Nc1ccccc1)N(CCc1ccncc1)C1CCCCC1	-8	-8	98	102
COC(=O)c1sccc1-c1ccc(/C=N/OC(=O)c2cccs2)o1	-5	114	103	106
O=C(CSc1nnc(Cc2ccccc2)n1Cc1ccco1)NC1CCCC1	-22	16	100	103
O=C(C1CC1)N1CCC(C(O)(c2ccccc2)c2ccccc2)CC1	-38	-7	107	98
c1ccc(-c2cnc(CSc3ncn[nH]3)o2)cc1	9	3	99	103
O=C1Nc2ccccc2C12Nc1ccccc1CO2 (configuration not stated)	0	0	104	105
O=C(COc1ccc(S(=O)(=O)NC2CCCC2)cc1)N1CCCCC1	-23	-18	103	105
CC1CCN(S(=O)(=O)c2ccc(C(=O)NCc3ccco3)cc2)CC1	-14	/	89*	87*
CCCCCNc1nc2ccccc2nc1NS(=O)(=O)c1cccs1	-25	132	/	/
CCSc1nnc(CSc2nc(C)cc(C)n2)n1-c1ccccc1	-14	0	102	106
O=C(OCc1ccc(Cl)c(Cl)c1)c1ccccn1	-7	5	101	102
COc1ccc(N(CC(=O)N2CCN(c3ccc(Cl)cc3)CC2)S(=O)(=O)c2c(C)noc2C)cc1	9	0	98	102
Cc1ccc(N(CC(=O)NCc2cccs2)S(=O)(=O)c2cccs2)cc1	-20	-3	104	107
CN1C/C(=C/c2ccc(O)cc2)C(=O)/C(=C/c2ccc(O)cc2)C1	-78	11	97	104
O=C(NC(=S)NCc1ccccc1)C1CCCC1	-24	76*	99	99
O=C(O)Cc1ccc2sc(-c3ccccc3)nc2c1	/	-15	102	109
Cc1cc(C)cc(N2C(=O)c3ccccc3NC2c2ccc(Cl)cc2)c1 (configuration not stated)	-10	/	101	106
CN1CCC(NCCc2ccccc2)CC1	14	-4	101	104
COC(OC)c1ccc(C#N)c(SCC(=O)c2ccc(Cl)cc2)n1	-56	0	103	107
COc1ccc(C(=O)CSc2nn3c(SCC(=O)c4ccc(OC)cc4)nnc3s2)cc1	-4	/	112	114

An excerpt from above in order of SMILES length, low to high.
SMILES	MenB inh	MbtI inh	Polio RdRp inh	Polio RdRp inh intensity
O=P(c1ccccc1)(c1ccccc1)C1CCCO1 (configuration not stated)	-71	-8	101	103
c1ccc(-c2cnc(CSc3ncn[nH]3)o2)cc1	9	3	99	103
Cc1nn(-c2ccccc2)c2sc(C(=O)Nc3cccnc3)cc12	-1	i	97	103
O=C(CSc1nnc(Cc2ccccc2)n1Cc1ccco1)NC1CCCC1	-22	16	100	103

Continued:
SMILES	MenB inh	MbtI inh	Polio RdRp inh	Polio RdRp inh intensity
CCCCN(CC)C(=O)c1cc2c(=O)n3ccccc3nc2n1C	-28	-402	111&101	115&104
O=C(NCCOC12CC3CC(CC(C3)C1)C2)c1nc(-c2cccnc2)no1	-2	-16	102	108
CC(CNC(=O)c1cc2oc3ccccc3c2n1C)c1ccccc1 (configuration not stated)	-7	i	104	104
COc1ccc(N/C(N)=N/c2nc(CSc3nc4ccccc4s3)cc(=O)[nH]2)cc1	-6	17	101	97
CCn1c(=O)n(CC)c2cc(NC=O)c(Br)cc21	-68	7	101	104
Cc1ccc(C(C)(C)CC(=O)O)cc1	13	12	101	97
Cc1nnsc1C(=O)NNc1ccc(C(C)C)cc1	-9	10	100	96
CCn1c(N2CCN(C(=O)Nc3ccc(Cl)c(C(F)(F)F)c3)CC2)nc2ccccc21	-6	-5	100	100
COc1cc(OC)cc(C(=O)NC(C(=O)N2CCC2)C(C)C)c1 (configuration not stated)	-11	-3	106	104
Cc1oc2ccc(O)c(CN3CCN(C)CC3)c2c1C(=O)OCC(C)C	-7	4	101	102
Cc1cc2nc3n(c2cc1C)CCCN3	-47	-4	102	101
CC(C)NC(=S)NC(=O)c1ccco1	-18	18	103	87
O=C(NC1CC1)C1CCN(C(=O)c2cnn(-c3ccccc3)c2-n2cccc2)CC1	-10	-14	105	103
O=C(NC1CCCCC1)/C(=N\O)c1ccccn1	-14	-28	103	104
COC(=O)c1ccc2c(c1)N(C)C(=O)/C(=C/c1ccccc1OC)S2	-46	12	102	105

Single entries from above.
`Cc1nnsc1C(=O)NNc1ccc(C(C)C)cc1` – Polio RdRp inh = 100
`CN1C/C(=C/c2ccc(O)cc2)C(=O)/C(=C/c2ccc(O)cc2)C1` – MbtI inh = 11
`O=C(OCc1ccc(Cl)c(Cl)c1)c1ccccn1` – MenB inh = -7
`CCCCN(CC)C(=O)c1cc2c(=O)n3ccccc3nc2n1C` – Polio RdRp inh intensity = 115&104
`c1ccc2c(CSc3nc4ccccc4o3)cccc2c1` – MenB inh = -13

(list continues)
SMILES	MenB inh	MbtI inh	Polio RdRp inh	Polio RdRp inh intensity
C=CC[n+]1c(C)csc1Nc1ccc(C)cc1	/	2	102	99
CCCNC(=O)NCc1cc(C)n(-c2ccc(Cl)cc2)c1C	-10	-3	101	104
CCc1ccc(CN(C)C(C)C(=O)Nc2ccc(NC(C)=O)cc2)cc1 (configuration not stated)	8	-12	101	104
CCOC(=O)c1c(Nc2ccc(C)cc2)n[nH]c1N	16	3	104	100
NC(=O)c1ccc(NC(=O)CN2CC(=O)Nc3ccccc32)cc1	-13	10	103	111
COc1ccccc1N1CCN(C(=O)CSc2nc(C)c(C)c(=O)[nH]2)CC1	15	9	102	97
OCCN(Cc1ccccc1)Cc1cccc(C(F)(F)F)c1	-13	-14	104	103
CN(Cc1nc2ccccc2c(=O)[nH]1)C(=O)c1cn(-c2ccccc2)nc1-c1cccs1	-5	1	98	97
O=C(/C=C/c1c(Cl)nc2sccn12)OCc1ccco1	-15	1	101	92
CCOC(CSc1nnc2c3ccccc3n(CC)c2n1)OCC	-14	7	101	103
Cc1ccc2nc(COC(=O)/C(C#N)=C/c3cc(C)n(CC(C)C)c3C)cc(=O)n2c1	-10	3	95	106
Cc1nc2ccccc2nc1OCC(=O)NCC(F)(F)F	-20	2	101	111
Cc1nc2cc(-c3cccc(F)c3)nn2c(C)c1CCC(=O)Nc1ccc2c(c1)OCCO2	0	3	99	103
CCOc1ccc(NC(=O)CN(C)C(=O)C2CCCC2)cc1OCC	-7	1	105	109
CN1CCN(/N=C/c2nc(-c3ccc(Cl)cc3)n3ccccc23)CC1	-38	6	101	102
O=C1CCC(c2ccccc2)N1C(=O)c1ccc(Cl)cc1 (configuration not stated)	-3	-12	98	103
CC(C)c1ccccc1NC(=O)CC1(CC(=O)O)CCCC1	/	-13	99	101
Cc1noc(C)c1CSc1ncccc1C(=O)Nc1ccccc1C(=O)NC1CCCC1	-14	-7	104	108
CCCN(CCC)CN1C(=S)SC2=NC(=O)CCCN21	-10	65	103	106
NC(=O)COC(=O)c1ccccc1OCc1ccccc1	/	11	102	101
COC(=O)c1c(N)sc2c1CCN(C)C2	4	/	99	113
ON=C1CCCCCCCCCCC1	-4	-20	104	106
NC(=O)c1ccc(NC(=O)COC(=O)C2CC(=O)N(Cc3ccccc3)C2)cc1 (configuration not stated)	1	-6	103	113
O=C(CSC1=Nc2ccccc2C2CC=NN12)NCc1ccco1 (configuration not stated)	-85	8	101	103
CN(C)/C=C/C(=O)C(c1ccccc1)c1ccccc1	-3	8	109	101
OC[C@H]1O[C@@H](O[C@@H]2[C@@H](CO)O[C@](O)(CO)[C@H]2O)[C@H](O)[C@@H](O)[C@H]1O	-4	-4	100	99
NC(=S)COc1cc(Cl)cc(Cl)c1	-15	2	102	103
COC(=O)c1cnc(NCc2cccnc2)c2ccccc12	-28	76	103	97
O=C(CSc1nnc(SCC(=O)N2CCCC2)s1)N1CCCC1	13	91*	103	100
O=C(Cc1coc2cc3c(cc12)CCC3)OC1CCCCC1=O (configuration not stated)	-28	-4	101	103
CCOC(=O)c1nnc(Cc2ccc(F)cc2)o1	-24	-11	97	98
CCOCN(C(=O)Cn1c(C(C)O)nc2ccccc21)c1c(C)cccc1CC (configuration not stated)	-14	-6	102	102
CCc1cc(C(=O)OC)c(NC(=O)CN2CC(C)CC(C)C2)s1 (configuration not stated)	-15	-17	103	103
CCCC(=O)Nc1cc(C)c(O)c(-c2nc3cc(Cl)ccc3o2)c1	11	-8	102	101
NC(=S)N1CCCCC1	-7	-14	/	/
Cc1ccc(CN2CCN(c3ncccn3)CC2)c(C)c1	-17	3	103	101
Cc1c(C(=O)Nc2ccccc2Cl)sc2nc3n(c(=O)c12)N=C(c1cc(O)ccc1O)CS3	-20	-14	103	105
NC12CC3CC(CC(C3)C1)C2	2&3	-10&-1&-8	101&100&99	101&102&100
CCn1c(SCCNS(=O)(=O)c2ccc(C)cc2)nnc1-c1ccc(Cl)cc1	-38	-6	112	105
Cn1c(-c2ncc(C(F)(F)F)cc2Cl)n[nH]c1=S	-17	23	109	102
C[C@H](O)C(=O)Nc1c(I)c(C(=O)NC(CO)CO)c(I)c(C(=O)NC(CO)CO)c1I	-8	-2	101	97
O=C(Nc1nccs1)C1CCN(S(=O)(=O)c2ccccc2)CC1	-53	-7	105	100
O=C(NCc1nc2ccccc2n1Cc1ccccc1)c1ccccc1	/	-3	101	107
Fc1cccc(Cl)c1-c1[nH]c(=S)nc2[nH]c(=S)[nH]c(=S)c12	1	/	108	115
O=C(COC(=O)c1cc(-c2ccco2)nc2ccccc12)Nc1ccc(F)c(F)c1F	-24	102	101	109

Whole records, quoted from the list. Order of values: MenB inh | MbtI inh | Polio RdRp inh | Polio RdRp inh intensity
Listed for O=C1CCC(c2ccccc2)N1C(=O)c1ccc(Cl)cc1 (configuration not stated) → -3 | -12 | 98 | 103
Listed for O=C1Nc2ccccc2C12Nc1ccccc1CO2 (configuration not stated) → 0 | 0 | 104 | 105

Continued.
SMILES	MenB inh	MbtI inh	Polio RdRp inh	Polio RdRp inh intensity
COCC(C)NC(=O)c1ccc2c(c1)OCO2 (configuration not stated)	-16	-12	103	102
COc1ccccc1C1CCN(C(=O)C2CCCCC2)CC1	-26	-6	106	102
COc1ccc(CNC(=O)C(C)Nc2cc(OC)c(Cl)cc2OC)cc1 (configuration not stated)	-33	9	103	97
CC1(C)CC(NCc2ccco2)CCO1 (configuration not stated)	-8	/	109	112
CCN(CC(=O)Nc1ccc(OC)cc1)C1CCCCC1	-10	-15	108	116
N=C(N)SCCN1C(=O)c2ccccc2C1=O	2	-10	108	109
Cc1nn(C(=O)c2cccnc2)c(-c2ccccc2)c1Sc1ccccc1	-15	-9	101	106
Clc1ccc(CNc2ccc(N3CCOCC3)cc2)cc1Cl	-24	-2	98	100
O=C(NCc1ccccc1)c1cnc(N2CCOCC2)nc1	-38	-8	100	103
Cc1cc(COc2ccc(-c3ccccc3)cc2)no1	-36	-3	104	107
CCc1cc(C(=O)O)n(C)n1	29*	3	102	100
CCOC(=O)N1CCN(C(=S)Nc2ccc(C)c(C)c2)CC1	9	-6	106	107
O=C(Cc1ccccc1)Nc1ccc(Cl)c(Cl)c1	-22	/	103	101
CC(=O)NCCC(=O)Oc1c(C)ccc(C)c1C	9	-24	107	109
CC1(C)CC(=O)C(C=NCCN2CCN(C(=O)NC34CC5CC(CC(C5)C3)C4)CC2)=C(O)C1	19	0	100	101

Screens: PubChem, ICCB-Longwood Screening Facility, Harvard Medical School

Compounds were not picked by outcome; 1.7% or so of the library scored in one or more.
